Screening results: PubChem, several laboratories
Sa ugtP lethal – compounds lethal to S. aureus RN4220 ugtP deletion mutant. growth inhibition, % (concentration not given with the values). AID 1259309. 0.54% of 330,000 active. OD600 growth, 16 h; some inactives read as strong as hits;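 active means z-score under -3 and OD600 up to 0.15 on both plates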;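 further: plate controls were untreated wells for no effect and antibiotic for full effect; wells of about 80 µL received 100 nL stock; the first replicate is given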
RN4220 kill – kills Staphylococcus aureus RN4220 | 0.33% of 330,000 active | inhibition, % (test concentration not listed) | S. aureus RN4220 growth, OD600, 16 h;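 active means z-score of -3 or lower and OD600 up to 0.18 on both plates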;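 further: plate controls were untreated cells for no effect and reference antibiotic for full effect; stock transfer was 100 nL into about 80 µL; one replicate is shown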
BJeLR lethal – BJeLR cell viability loss; inhibition, % (no concentration beside the values); BJeLR (HRASV12) viability, CellTiter-Glo ATP luminescence, 48 h; reference of the scale not given here; 0.17% of 300,000 active;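 active means replicate mean above 50%; inconclusive means above 50% but judged a plate artefact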;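 further: 50 nL library stock added to about 25 µL; numbers are from one replicate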
Bead autofluor – flagged as autofluorescent in microsphere protease counterscreen. fluorescence intensity (concentration not given with the values). 3.1% of 360,000 active. compound autofluorescence counterscreen, microsphere flow cytometry; stronger effect = higher value;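 active means at least 3 SD above the mean of all compounds, about 16000 in these data; inconclusive means too few beads counted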;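 further: 100 nL of 1 mM stock went into each well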
Mtb hypoxia inh – inhibitors of hypoxia-regulated fluorescent reporter in Mycobacterium tuberculosis; M. tuberculosis hypoxia-regulated fluorescent reporter, fluorescence; fluorescence inhibition, % (test concentration not listed); 0.1% of 300,000 active;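 active means 35 to 45% if threefold the growth effect, above 45% if 1.5-fold the growth effect; inactive means the rest, general growth blockers included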;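 further: wells of about 50 µL received 100 nL stock; 0% = vehicle wells and 100% = reference inhibitor wells; whole bacteria with a GFP reporter of the hypoxia response; strong numbers were not always called active; many hits fall short of the cut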
PrP 5UTR inh – inhibition of PrP 5' UTR reporter expression. cell-based PrP 5' UTR mRNA reporter, plate reader. inhibition, % (test concentration not listed). 0.35% of 340,000 active;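 active means every replicate at 50% or more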;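 further: 0 = median of the neutral control wells; tested in H4 reporter cells; numbers are from one replicate; inactives centre near -14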
Mtb hypoxia inh growth – also measured in Mtb hypoxia inh; calls as there; growth inhibition, %; measured here: M. tuberculosis growth (absorbance);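 0% = vehicle and 100% = reference antibiotic; read after six days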
Active calls of the source: *; ? = inconclusive; · = no result given; & = joins results of further samples.

SMILES	Sa ugtP lethal	RN4220 kill	BJeLR lethal	Bead autofluor	Mtb hypoxia inh	Mtb hypoxia inh growth	PrP 5UTR inh
Cc1cccc(NC(=O)c2nc[nH]c2C(=O)N2CCc3ccccc3C2)c1	-16	-1.8	·	4267	-1	3	-1
CC(OC(=O)C1CCN(S(=O)(=O)c2ccc3c(c2)OCCO3)CC1)C(=O)N(C)c1ccccc1 (stereo not drawn)	2	1.4	·	7799	-3	3	-23
COc1ccc(C(=O)N2CCC(O)(c3ccc(F)cc3)CC2)cc1OC	8	-1.6	10	3605	·	·	-32
O=C(O)/C=C/C(=O)NCCC(c1ccccc1)c1ccccc1	6	3.1	-10	4573	0	-10	-3
Cc1cc(NCCCN2CCOCC2)n2nc(C)c(-c3ccccc3)c2n1	14	-2.4	0	2400	·	·	-25
COc1cc(-n2ccnc2SC)c(Cl)cc1Cl	0	2.4	-3	5236	·	·	-7
CC(C)(C)OC(=O)N/N=C/c1ccc(N2CCOCC2)s1	·	·	4	1950	·	·	-44
COC(=O)c1ccccc1NC(=O)NCC1CCCO1 (stereo not drawn)	-1	5.1	0	22874*	4	17	-3
COc1cccc(NC(=O)Nc2nnc(CC(=O)NCc3ccccc3)s2)c1	8	7.0	11	4439	8	4	-23
O=C(NN=C/C(Br)=C/c1ccccc1)C1CC1	-3	0.3	·	·	12	9	·
CC(Oc1cc2oc(=O)cc(-c3ccccc3)c2cc1Cl)C(=O)NCC1CCC(C(=O)O)CC1 (stereo not drawn)	2	11	-10	4163	·	·	-2
O=C(CCCCCn1c(=S)[nH]c2ccc(N3CCOCC3)cc2c1=O)NCCc1ccccc1	4	4.4	-7	9997	-1	3	-35
Cc1ncc(CSc2nnnn2-c2ccccc2)c(N)n1	4	2.2	-3	4308	8	7	-14
CN(CC1COc2ccccc2O1)C(=O)CSc1nncs1 (stereo not drawn)	6	1.0	·	4015	13	14	-11
Clc1ccc(Sc2cc(Cl)c(-c3ccccc3)nn2)cc1	13	46	-4	4889	·	·	-4
Cc1ccccc1CN1CCN(CC(=O)NCc2ccco2)C1=O	-4	0.1	-3	4733	·	·	-6
CC1=C(C(=O)Nc2ccc(C(=O)NCCCN3CCCCC3)cc2)SCCO1	4	3.5	-10	6696	2	-1	-5
CN1CC[C@]23c4c5ccc(O)c4OC2[C@H](O)C=CC3[C@H]1C5 (stereo partly drawn)	11	1.4	·	4619	·	·	-13
NC(=O)Nc1ccc(C(=O)OCC(=O)NC2CCCCC2)cc1	2	6.4	-2	4564	7	-1	-1
C=CCn1c(SCC(=O)N(C)c2c(N)n(Cc3ccccc3)c(=O)[nH]c2=O)nnc1-c1ccccc1OC	2	1.9	1	5622	-8	2	-8

In the list so far, these have four or more nitrogen atoms.
SMILES	Sa ugtP lethal	RN4220 kill	BJeLR lethal	Bead autofluor	Mtb hypoxia inh	Mtb hypoxia inh growth	PrP 5UTR inh
Cc1cccc(NC(=O)c2nc[nH]c2C(=O)N2CCc3ccccc3C2)c1	-16	-1.8	·	4267	-1	3	-1
Cc1cc(NCCCN2CCOCC2)n2nc(C)c(-c3ccccc3)c2n1	14	-2.4	0	2400	·	·	-25
COc1cccc(NC(=O)Nc2nnc(CC(=O)NCc3ccccc3)s2)c1	8	7.0	11	4439	8	4	-23
O=C(CCCCCn1c(=S)[nH]c2ccc(N3CCOCC3)cc2c1=O)NCCc1ccccc1	4	4.4	-7	9997	-1	3	-35
Cc1ncc(CSc2nnnn2-c2ccccc2)c(N)n1	4	2.2	-3	4308	8	7	-14
C=CCn1c(SCC(=O)N(C)c2c(N)n(Cc3ccccc3)c(=O)[nH]c2=O)nnc1-c1ccccc1OC	2	1.9	1	5622	-8	2	-8

Next section:
SMILES	Sa ugtP lethal	RN4220 kill	BJeLR lethal	Bead autofluor	Mtb hypoxia inh	Mtb hypoxia inh growth	PrP 5UTR inh
O=C(CSc1nnc(-c2cccs2)n1-c1ccccc1)NCc1ccco1	-1	-1.3	-9	2930	3	-3	-11
Cc1cc[n+](-c2[nH]c(=O)sc2C=N/N=C(\[O-])c2ccccc2)cc1C	2	3.1	·	·	9	6	·
O=C(/C=C/c1ccc(F)cc1)NC(=S)NNC(=O)c1cccnc1	2	4.7	-3	2071	-1	7	-16
CC(=O)C1=C(C)NC(=O)CC1c1ccccc1Cl (stereo not drawn)	6	10	2	2538	6	5	-44
CCC(=O)c1ccccc1OCCCN1C(=O)NC(C)(C)C1=O	-3	4.2	-12	7815	7	8	-16
CCOc1cc(C(N)=O)cc(Br)c1OCc1ccccc1	13	0.1	-3	4019	1	12	-14
Cc1cc(NC(=O)c2ccc(Cl)cc2)cc(C)c1OCC(=O)N1CCOCC1	3	2.5	-1	5898	0	4	-30
CN(CC(=O)Nc1cccc(F)c1)C(=O)Cc1n[nH]c(=O)c2ccccc12	1	-0.7	0	·	5	-1	-4
O=S(=O)(c1ccc(Br)s1)N1CCN(CCOc2ccccc2)CC1	14	-3.9	·	3813	-1	-3	-8
CCOC(=O)C1=C(CNCc2ccc(C)cc2)NC(=O)NC1c1ccc(OC)cc1 (stereo not drawn)	-4	-1.0	-4	6085	·	·	-8
Cc1oc(/N=C/c2ccc(F)cc2)c(C#N)c1C	·	·	-3	3394	·	·	-20
CCCCSc1nnc(CCC)n1N	15	7.4	1	?	19	2	-13
COc1cc(C=NNC(=O)CC#N)ccc1Oc1nc(Cl)ncc1F	-1	1.6	·	·	3	16	·
CC(C)[C@H](CO)Nc1nc(NCc2ccc(S(N)(=O)=O)cc2)c2ncn(C(C)C)c2n1	·	·	2	4039	·	·	0
Cc1cccn2c(=O)nc(SCC(=O)NCCc3ccccc3)nc12	5	4.5	-2	?	12	0	-17
CC1C(=O)CCC1(C(=O)O)c1ccccc1 (stereo not drawn)	·	·	-6	3611	·	·	-5
CCn1c(SCC(=O)NC2CCCC2)nnc1C(C)NC(=O)c1ccccc1F (stereo not drawn)	·	·	3	3070	·	·	-18
CCOC(=O)c1c(C)[nH]c(C(=O)CN2C(=O)NC(C)(c3ccc(C)cc3)C2=O)c1C (stereo not drawn)	4	-7.9	-7	8831	1	4	-8
COc1cccc(N=C2CC(C)(C)CC(=O)/C2=C(/O)c2ccccc2)c1	3	4.0	-12	4431	13	2	-5
Cc1ccc(CS(=O)(=O)c2ncc(Cl)c(C(=O)Nc3ccc(OC(F)F)cc3)n2)cc1	·	·	28	3999	·	·	1
Cc1ccc(C(=O)N2CCC(C)CC2)cc1NC1=NC2CS(=O)(=O)CC2S1 (stereo not drawn)	2	1.7	12	5123	1	4	-47
O=C(NC(Cc1ccc(Br)cc1)C(=O)O)OCC1c2ccccc2-c2ccccc21 (stereo not drawn)	-8	21	·	·	1	9	·
COc1ccc(OC2OC3COC(C)(C)OC3C(O)C2NC(C)=O)cc1 (stereo not drawn)	-4	7.8	-16	3627	·	·	-25
CN(C)CC(c1ccccc1)c1ccccc1	10	1.1	1	4249	4	-2	·
CCNC(=O)CC1C(=O)N(c2ccc(OC)cc2)C(=O)N1CCOC (stereo not drawn)	1	3.9	-7	3890	6	6	-54
O=C(c1cc2c(s1)CCCC2)n1cccn1	·	·	7	11136	·	·	0
O=c1c(F)cn(C2CCCO2)c(=O)n1Cc1ccc(Cl)cc1 (stereo not drawn)	7	0.1	-2	2494	5	2	-16
COC(=O)c1c(NC(=O)C2CCCCC2C(=O)O)sc2c1CCCCC2 (stereo not drawn)	-2	15	4	3127	11	-2	-21
O=C(O)c1ccc(Nc2nc(-c3ccc([N+](=O)[O-])cc3)nc3ccccc23)cc1	-7	-1.0	2	3447	14	13	-4
Cc1cccc(C)c1NC(=O)CSc1nnc(-c2ccncc2)n1Cc1ccco1	11	2.8	3	7528	10	-3	-4
COc1cn(-c2ccccc2)nc1C(=O)Nc1ccc(C)cc1	-6	4.6	1	6219	0	7	-39
CC1CCCC(NC(=O)CNC(=S)N(Cc2ccccc2)Cc2cccs2)C1C (stereo not drawn)	·	·	4	4516	·	·	-9
CC(C)N=C(NC#N)SCC(=O)NC(C)(C)C	-6	-3.2	-4	2763	·	·	11
CCOC(=O)C1CCCN(Cc2cn(C)nc2-c2ccc3c(c2)OCCO3)C1 (stereo not drawn)	13	0.2	-6	1963	-7	0	-17
CCN(CC)c1ccc(/C=C2\C(=O)NC(=S)N(c3ccc(OC)cc3OC)C2=O)o1	-1	0.7	-9	·	54*	5.5*	-19
O=C1C=C(NCCN2CCOCC2)CC(c2ccccc2)C1 (stereo not drawn)	4	2.0	-10	8161	11	3	-20
CCOc1ccc(NC(=S)C(C#N)=C2N(C)c3ccccc3N2C)cc1	-2	1.9	1	4359	-1	2	-15
O=C(COC(=O)CCc1ccc(S(=O)(=O)N2CCOCC2)cc1)NCc1ccc(Cl)cc1	4	2.1	0	2214	0	4	-43
CCSc1nnc(NC(=O)Cc2ccc(OC)cc2)s1	0	-1.7	0	4464	·	·	-1
COc1cccc(C(=O)N2CCN(Cc3ccccc3C(F)(F)F)CC2)c1	5	6.7	-7	2158	·	·	-4
CC(=O)OCC1OC(CC=NOCC(O)C2OC3OC(C)(C)OC3C2O)C=CC1OC(C)=O (stereo not drawn)	-11	4.2	·	·	9	8	·
Cc1ccsc1-c1nc(CSCC(=O)N2CCC3(CC2)OCCO3)c(C)o1	-5	1.2	-6	10202	5	9	1
O=C(NC1CCN(S(=O)(=O)c2ccccc2)CC1)c1ccccc1	2	2.1	-6	3703	7	-2	-11
C/C(N)=C(/C#N)C(=O)COC(=O)C1Cc2ccccc2CN1S(C)(=O)=O (stereo not drawn)	-1&-5	1.8&6.8	-1	2925&9242	4&-3	5&6	-4&-15
O=C(O)CNS(=O)(=O)c1cc(Cl)c(Cl)cc1Cl	-5	-14	-8	3145	6	10	-19
O=C(CO/N=C/c1ccccc1OC(F)F)NCc1ccco1	·	·	-6	3122	·	·	7
COC(Cn1c(-c2cccc(S(=O)(=O)N(C)C)c2)n[nH]c1=S)OC	5	14	-2	4611	-1	1	-6
O=C(NN1C(=O)C2CC=C(Cl)CC2C1=O)c1ccncc1 (stereo not drawn)	2	4.2	4	4543	4	-1	-32
CCOC(=O)c1c(NC(=O)N/N=C/c2ccccc2OCC)sc(C(C)=O)c1C	·	·	-1	2193	·	·	-16
Cc1cc(NC(=O)c2cc(CC(C)C)on2)no1	2	2.2	-1	5770	-2	1	-42

Following part.
SMILES	Sa ugtP lethal	RN4220 kill	BJeLR lethal	Bead autofluor	Mtb hypoxia inh	Mtb hypoxia inh growth	PrP 5UTR inh
CCN1CCN(CCCNC(=O)c2ccc3c(c2)NC(=O)c2ccccc2S3)CC1	5	-3.5	-6	5561	·	·	-2
COc1ccc(OC)c(NC(=O)c2ccccc2NC(=O)c2ccco2)c1	7	4.9	-1	5048	17	3	-3
CSCCC(C(=O)Nc1ccc2c(c1)OCO2)N1C(=O)c2ccccc2C1=O (stereo not drawn)	7	3.4	0	4112	2	3	-17
Cc1cccc(C)c1NC(=O)CCS(=O)(=O)c1cccc2nonc12	0	4.2	5	4197	12	8	-12
Clc1ccccc1OCc1nn2c(-c3ccncc3)nnc2s1	1	12	-3	9963	7	-1	-11
Cc1cccc2c1cnn2C(=O)CCC(=O)NC1CCCCC1	-1	7.6	0	5523	3	6	-17
CC(C)(C)c1ccc(C(=O)Oc2ccc3c(c2)OCC3=O)cc1	16	6.1	7	3361	1	1	-20
CCCS(=O)(=O)N1CCC(C(=O)N2CCN(Cc3ccccc3)CC2)CC1	2	1.5	-5	3280	7	9	-15
COc1ccc(OC)c(-n2c(-c3ccn[nH]3)n[nH]c2=S)c1	0	3.2	-7	3451	12	4	-17
CCCN1CCCC2Cc3[nH]ncc3CC21 (stereo not drawn)	-2	8.7	·	·	-3	1	·
COc1ccc(-n2cnnc2SCC(=O)Nc2cccc(S(=O)(=O)N3CCCCC3)c2)cc1	-3	4.4	8	10401	2	16	-15
CCOC(=O)/C(=C\Nc1ccccc1C(F)(F)F)Sc1ncc(C(F)(F)F)cc1Cl	-12	-7.4	1	2334	·	·	-5
COc1ccc2c(C)cc(SC3CCOC3=O)nc2c1 (stereo not drawn)	2	2.6	-5	2298	0	-5	1
CS(=O)(=O)c1ccc2nc(NC(=O)C3=NN(c4ccccc4)C(=O)CC3)sc2c1	-4	-3.5	-6	5086	-6	1	-16
COCCn1c(SCc2cc(C(C)=O)ccc2OC)nc2cc(Cl)ccc2c1=O	3	1.5	-11	10549	7	1	-33
Cc1oc(-c2ccc(Cl)cc2)nc1CS(=O)CC(=O)NCCN1CCCCCC1 (stereo not drawn)	-1	0.8	2	5938	2	-4	-16
CC(=O)N1CCc2cc(S(=O)(=O)N3CCc4ccccc4C3)ccc21	0	4.0	7	2427	·	·	-20
